# Assay outcomes deposited in PubChem BioAssay by National Center for Advancing Translational Sciences (NCATS).
# Marburg entry inh – Marburg virus entry inhibition. 1.8% of 300,000 active. Marburg virus pseudotyped entry inhibition, cell reporter; control for the full effect not named in the record; about a third of the inactives were read at about 46 µM. Potency, µM (doses to about 37.8 µM), inactives show at the top dose activity change, negative = inhibition, hits mostly inhibitors; active = well fitted inhibition curve with a large enough effect; inconclusive = small, poorly fitted or top-dose-only effect, or effect the other way; inactive = flat fitted curve, though single readings scatter; tested in HEK293 cells; about a fifth of its hits are not listed in these tables; further: on the % scale 0 is the no-effect control and ±100 the full control effect; luciferase read-out
# Cruzain Triton – cruzain (T. cruzi) inhibition with detergent; AID 1478; 0.43% of 200,000 active; Potency, µM, for inactives: max response, negative = inhibition, most hits filed as inhibitors; purified cruzain, Z-FR-AMC fluorescence, 0.01% Triton;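 further: plate controls were neutral wells for no effect and buffer without enzyme for full effect; nearly all actives have a fitted effect of over 40% in size; top concentration of the series not given in the record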
# Target sequence (P25779 123-467 limits assumed): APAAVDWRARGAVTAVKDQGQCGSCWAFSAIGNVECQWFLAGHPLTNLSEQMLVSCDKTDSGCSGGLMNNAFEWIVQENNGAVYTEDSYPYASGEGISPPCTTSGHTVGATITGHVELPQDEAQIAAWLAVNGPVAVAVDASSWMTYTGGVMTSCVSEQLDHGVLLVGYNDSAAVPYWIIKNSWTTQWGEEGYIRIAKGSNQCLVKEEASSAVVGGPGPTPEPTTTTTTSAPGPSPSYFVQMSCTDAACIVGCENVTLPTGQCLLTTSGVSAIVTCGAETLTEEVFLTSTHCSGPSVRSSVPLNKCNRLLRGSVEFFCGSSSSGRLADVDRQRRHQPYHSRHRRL
#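 Purified cruzain (1.5 nM final) was preincubated with compounds for 15 min at room temperature in 100 mM sodium acetate pH 5.5, 5 mM DTT, 0.01% Triton X-100. Reaction started with 2 uM Z-FR-AMC; AMC fluorescence change over 60 s gave activity.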
# RE007 growth inh – less growth of the S. pombe RE007 Vpr strain. 0.21% of 360,000 active. S. pombe RE007 Vpr strain, BacTiter-Glo ATP luminescence, 24 h; control for the full effect not named in the record. Potency, µM (series often up to 92.2 µM), for inactives: at the top dose activity change, negative = less growth; active = well fitted falling curve with a large enough effect; inconclusive = small, poorly fitted or top-dose-only effect; inactive = no such curve, though single readings can be large or run the other way;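 further: on the % scale 0 is the no-effect control and ±100 the full control effect; nearly all actives have a fitted effect of over 50% in size; the assay follows cell death caused by Vpr and the record does not say whether a fall means rescue or toxicity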
#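 Fission yeast RE007 carrying one integrated HIV-1 vpr copy, seeded at OD 0.01 in PMG+AL medium with 23 nL pinned compound. Grown 24 h at 30 degrees; viability read by BacTiter-Glo luminescence after 5 min.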
# Cruzain inh noDet – inhibitors of Trypanosoma cruzi cruzain without detergent | P25779 | purified cruzain, Z-FR-AMC fluorescence, no detergent | Potency, µM, for the others: max response, negative = inhibition, usual class: inhibitors | 2.3% of 200,000 active;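 further: plate controls were enzyme without inhibitor for no effect and buffer without enzyme for full effect; nearly all actives have a fitted effect of over 40% in size; top concentration of the series not given in the record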
#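 Purified cruzain at 1.5 nM, pre-incubated 15 min with compound at room temperature in 100 mM sodium acetate pH 5.5, 5 mM DTT, 0.00005% Triton X-100. Reaction started with 2 uM Z-FR-AMC; AMC fluorescence increase over 60 s gives rate.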
# Lassa entry inh – inhibitors of Lassa virus binding or cell entry; Lassa virus pseudotype entry inhibition, cell reporter; control for the full effect not named in the record; Potency, µM (doses to about 37.9 µM), for inactives: top-dose activity change, negative = inhibition, usual class: inhibitors; 1.2% of 300,000 active; active means well fitted inhibition curve with a large enough effect; inconclusive means small, poorly fitted or top-dose-only effect, or effect the other way; inactive means flat fitted curve, though single readings scatter; tested in HEK293 cells; further: on the % scale 0 is the no-effect control and ±100 the full control effect; nearly all actives have a fitted effect of over 50% in size; luciferase read-out
# StopGo reporter – lowers the luciferase signal of an FMDV 2A StopGo reporter. human cells with a luciferase reporter of 2A StopGo recoding; control for the full effect not named in the record. Potency, µM (doses to about 57.9 µM), for inactives: at the highest dose signal change, negative = less light. 1.2% of 410,000 active; active = well fitted falling curve with a large enough effect; inconclusive = small, poorly fitted or top-dose-only effect; inactive = no such curve, though single readings can be large or run the other way; tested in HEK293T cells; further: on the % scale 0 is the no-effect control and ±100 the full control effect; nearly all actives have a fitted effect of over 45% in size; luciferase light after 4 h
# SARS PLP yeast – SARS-CoV PLP inhibition in yeast; S. cerevisiae expressing SARS-CoV PLpro, growth rescue; control for the full effect not named in the record; Potency, µM (highest dose often 32.9 µM), for the others: at the highest dose activity, positive = growth rescue; 0.19% of 330,000 active; AID 485353; active means well fitted rising curve with a large enough effect; inconclusive means small, poorly fitted or top-dose-only effect; inactive means no such curve, though single readings can be large or run the other way; further: 0% is about no effect; nearly all actives have a fitted effect of over 55% in size; growth read by luminescence after 48 h
# NS1 inh – blocks influenza NS1 protein function; S. cerevisiae slowed by influenza A NS1, growth recovery by OD600; AID 2326; 0.4% of 270,000 active; Potency, µM (series often up to 46.1 µM), inactives show top-dose activity, positive = more growth; active means well fitted rising curve with a large enough effect; inconclusive means small, poorly fitted or top-dose-only effect; inactive means no such curve, though single readings can be large or run the other way; further: nearly all actives have a fitted effect of over 50% in size
#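 A cell-based growth assay was used: compounds that relieve NS1-induced slow growth of budding yeast raise OD600. Assay medium was yeast nitrogen base with ammonium sulphate and -URA supplement, pH 6.0, with 2% galactose.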
# Starred values were filed as active, the others as inactive; u = inconclusive; x = no result given; & = joins results of further samples; [ ] = another dose, or the depositor's remark. Unless noted, the call rests on the fitted dose curve; in most records, active means well fitted curve in the direction sought with a large enough effect; inconclusive means small, poorly fitted or top-dose-only effect, or another doubt; inactive means no such curve, though single readings can be large; an effect the other way counts as inactive or inconclusive. Potency means the concentration at half of the fitted maximal effect.
SMILES,Marburg entry inh,Cruzain Triton,RE007 growth inh,Cruzain inh noDet,Lassa entry inh,StopGo reporter,SARS PLP yeast,NS1 inh
CCOc1ccc(CCNC(=O)c2cc3c(=O)n(C)c4ccccc4c3n2C)cc1OCC,-3%[46.1 µM],0.0%,x,-11%,8%[46.1 µM],u,x,x
CCC(=O)Nc1ccc2nc(SCC(=O)N3CCCC3)sc2c1,21%,6.5%,19%,-8%,32%,46%[activator],-10%,13%
CC(=O)Nc1cc(NC(C)=O)cc(C(=O)OCC(=O)c2ccc3c(c2)OCO3)c1,1%,x,-15%,x,0%,12%,x,x
COc1cc(/C=C2\NC(=S)NC2=O)ccc1OCc1cccc(C(=O)O)c1,u,x,-3%,x,u,7%,0%,14%
CC(=O)NCCCC(=O)NC(CCC(=O)OCc1ccccc1)C(=O)OCc1ccccc1 (stereo unspecified),x,x,7%,x,x,-6%,0%,-6%
CCNc1nc(NC(C)C)nc(OCCOC(=O)Nc2ccccc2)n1,-2%,-2.3%,0%,-3%,13%,x,-8%,-2%
COc1ccc(-c2cccc(NS(=O)(=O)c3ccccc3[N+](=O)[O-])c2)nn1,18%[46.1 µM],x,-3%,x,3%,22%,-5%,x
Cc1ccc(S(=O)(=O)c2nc(-c3ccccc3Br)oc2N(C)C)cc1,-16%,x,8%,x,u,-6%,x,x
O=C(NCCO)c1ccc2nc(-c3ccco3)c(-c3ccco3)nc2c1,1%,13µM*,-19%,13µM*,8%,-10%,-11%,1%
COC(=O)c1ccc(/C=C/C(=O)OCC(=O)Nc2cc(C)on2)cc1,-12%[46.1 µM],x,11%,x,u,-9%,16%,x
CC1CCCCC1NC(=O)/C(C#N)=C/c1ccc(OCC(N)=O)cc1 (stereo unspecified),-6%,-1.2%,1%,-6%,11%,u,8%,3%
CCOc1ccc(OCc2ccc(C(=O)N3CCCC3)o2)cc1,u,4.6%,5%,8%,-9%,x,-16%,-55%
COc1cccc(N2CCN(Cc3nc(N)nc(Nc4ccccc4)n3)CC2)c1,3%,1.8%,-8%,-2%,6%,u,9%,u
CC(C)(C)c1csc(NC(=O)c2ccc(Br)o2)n1,x,x,-21%,x,x,2%,-13%,-58%
O=C(O)COc1ccccc1/C=N/NC(=O)CN1CCN(Cc2ccccc2Cl)CC1,x,x,-4%,x,x,-16%,1%,8%
Cc1cc(C)n2cc(CSCc3ccco3)nc2n1,-13%,-2.1%,-10%,-13%,5%,-2%,6%,3%
Cc1cc(C)n(-c2ccc(NC(=O)C3CCCCN3C(=O)c3occc3C)cc2)n1 (stereo unspecified),x,x,4%,x,x,-7%,-3%,1%
COC(=O)Cn1ncn2c(cc3oc(C)cc32)c1=O,-14%,-0.5%,1%,-4%,18%,45%[activator],1%,-1%
Cc1cccc(NS(=O)(=O)c2ccc(-c3cnc(C4CC4)o3)cc2)c1C,x,x,14%,x,x,-30%,-11%,-79%
COc1ccccc1CNC(=O)CN1C(=O)NC2(CCCCCCC2)C1=O,1%[46.1 µM],x,-18%,x,-8%[46.1 µM],13%,3%,x
CNC(=S)NCc1ccc2[nH]c3c(c2c1)CCCC3,x,x,8%,x,x,2%,1%,17%
CSc1nn(CC(=O)Nc2ccccc2F)c(N)c1S(=O)(=O)c1ccccc1,x,-3.0%,x,-8%,u,-6%,x,x
Cc1cccc(-n2ncc3c(NCc4cccs4)ncnc32)c1,-23%,-0.6%,11%,-3%,u,x,-11%,-49%
Cn1nnnc1P(=O)(c1ccccc1)c1ccccc1,14%,6.3%,15%,-2%,1%,-11%,0%,5%
CC(=O)N1CCC(C(=O)Nc2ccc(S(=O)(=O)N3CCCCC3)cc2)CC1,u,x,4%,x,12%,-26%,0%,2%
CN(C)c1ccc(C(CNC(=O)c2ccc(C(C)(C)C)cc2)N2CCCC2)cc1 (stereo unspecified),x,2.7%,x,12%,u,-21%,x,x
O=C(NCCCNC(=O)c1ccc(Cl)cc1Cl)c1cnccn1,-6%[46.1 µM],x,-20%,x,8%[46.1 µM],-16%,-4%,-1%
COc1ccc2[nH]c3c(c2c1)CCNC3(C)CCc1ccc(Cl)nc1 (stereo unspecified),x,x,-22%,x,x,-13%,-1%,2%
C#CC(C)(C)NC(=O)c1ccc(-c2ccccc2F)cc1,u,x,5%,x,4%,23%,-6%,-55%
COc1ccc(CNC(=O)c2ccc(-c3ccccc3)cc2)cc1,2%,1.8%,2%,u,u,57%[activator],3%,-2%
CC12CCC(C(=O)N(CCCCN3CCN(c4ccccn4)CC3)C1=O)C2(C)C (stereo unspecified),x,x,-21%,x,x,-23%,-5%,7%
CCCCCCCCC(=O)NCc1ccc(O)c(OC)c1,-1%&-1%&-1%&-1%&-1%&-1%&-1%&-1%,-2.4%&0.0%,3%[18.4 µM],10%&4%,x,u,x,-17%
COc1cc(/C=C/C(=O)O)cc(S(=O)(=O)Nc2ccc3nc(SC)sc3c2)c1OC,4%,x,10%,x,20%,0%,-1%,x
O=[N+]([O-])c1ccc(S(=O)(=O)N2CCC3(CC2)OCCN3S(=O)(=O)c2cccs2)cc1,u,x,-13%,x,2%[46.1 µM],14%,5%,x
CC(C(=O)O)N1C(=O)C2C3CC(C2C1=O)C1C(c2ccccc2)c2sc(=O)[nH]c2SC31 (stereo unspecified),2%,-1.5%,1%,5%,11%,-11%,10%,30%
COc1ccc(C)cc1-n1nnnc1SCC(=O)NNC(=O)c1ccc([N+](=O)[O-])cc1,-1%[46.1 µM],0.8%,20%,-2%,-5%,-11%,-1%,6%
O=C1CCC(C(=O)N2CCCO2)CN1Cc1cccc(C(F)(F)F)c1 (stereo unspecified),7%,x,4%,x,u,31%[activator],-5%,6%
CC(C)=CC(=O)OCC(=O)Nc1cc(C)ccc1C,21%,x,-7%,x,u,19%,-5%,x
CC(=O)NC1C2CN3CCN(C2)CC1(Cc1ccccc1)C3 (stereo unspecified),u,-0.6%,-4%,-1%,-29%,-20%,20%,1%
N#Cc1c(NC(=O)CSc2nnc(-c3ccncc3)n2CC2CCCO2)sc2c1CCCC2 (stereo unspecified),-9%,-2.8%,1%,u,-14%,-22%,-1%,3%
CC(=O)N1C2CCCCC2S[C@H]2CCCCC21 (stereo partly specified),0%,2.2%,0%,-1%,7%,7%,1%,-5%
O=C(O)c1ccccc1Nc1ccc([N+](=O)[O-])cc1,0.5µM*,-10%,-14%,-2%,1.1µM*,46%[activator],-12%,-55%
O=C1c2ccccc2C(=O)N1CCCCN(C(=O)c1cc2ccccc2oc1=O)c1ccc(Cl)cc1,8%,-3.1%,-14%,19%,15%,3%,25%,-1%
Cc1nc(NC2=NCN(Cc3cccnc3)CN2)nc2c(C)cccc12,x,2.9%,x,-5%,x,x,0%,-1%
O=C(O)C1CCCN1S(=O)(=O)c1cccc2nsnc12 (stereo unspecified),23%[46.1 µM],x,-4%,x,27%,-3%,0%,1%

# Fetched by structure from the entries so far, two records:
SMILES,Marburg entry inh,Cruzain Triton,RE007 growth inh,Cruzain inh noDet,Lassa entry inh,StopGo reporter,SARS PLP yeast,NS1 inh
COc1ccccc1CNC(=O)CN1C(=O)NC2(CCCCCCC2)C1=O,1%[46.1 µM],x,-18%,x,-8%[46.1 µM],13%,3%,x
O=C(O)c1ccccc1Nc1ccc([N+](=O)[O-])cc1,0.5µM*,-10%,-14%,-2%,1.1µM*,46%[activator],-12%,-55%

# Additional compounds follow.
SMILES,Marburg entry inh,Cruzain Triton,RE007 growth inh,Cruzain inh noDet,Lassa entry inh,StopGo reporter,SARS PLP yeast,NS1 inh
CC(=O)c1cccc(NC(=O)Cc2coc3cc4c(cc23)CCC4)c1,-1%,-12%,2%,-10%,2%,0%,5%,-11%
COc1cc(-c2nc3ccccn3c2/N=C/c2cc(OC)c(O)cc2Cl)ccc1O,u,x,u,x,24%[46.1 µM],7%,-9%,x
NC(=O)c1ccsc1NC(=O)COc1ccccc1,-16%,-3.7%,-15%,-24%,u,66%[activator],-21%,-59%
O=C(Cn1cnc2c(nnn2Cc2ccccc2)c1=O)N1CCCc2ccccc21,x,-3.1%,0%,-9%,x,-20%,7%,-38%
CCCN(CCC)CCCNC(=S)Nc1ccc2nc(N3CCN(CC)CC3)cc(C)c2c1,x,x,-3%,x,x,-20%,2%,7%
COc1ccc(OC)c(-c2csc(NC(=O)Cc3ccc(F)cc3)n2)c1,u,x,13%,x,u,15%,-8%,-1%
O=S(c1ccc2ccccc2c1)c1cnns1 (stereo unspecified),u,2.8%,0%,-12%,u,u,3%,6%
O=C(NCc1cccs1)C1CCCN1C(=O)Nc1ccccc1 (stereo unspecified),10%,2.6%,0%,-2%,11%,23%,0%,-5%
O=C(COc1ccccc1Cl)NCc1ccccc1,-19%,x,-1%,x,-14%,71%[activator],-5%,-2%
Cc1nc(Cl)c2c(n1)NC1=C(O2)C(=O)CCC1,-2%[46.1 µM],-2.1%,-15%,17%,u,-9%,-9%,9%

# Structures from the list above that have a Cl atom:
SMILES,Marburg entry inh,Cruzain Triton,RE007 growth inh,Cruzain inh noDet,Lassa entry inh,StopGo reporter,SARS PLP yeast,NS1 inh
O=C(O)COc1ccccc1/C=N/NC(=O)CN1CCN(Cc2ccccc2Cl)CC1,x,x,-4%,x,x,-16%,1%,8%
O=C(NCCCNC(=O)c1ccc(Cl)cc1Cl)c1cnccn1,-6%[46.1 µM],x,-20%,x,8%[46.1 µM],-16%,-4%,-1%
COc1ccc2[nH]c3c(c2c1)CCNC3(C)CCc1ccc(Cl)nc1 (stereo unspecified),x,x,-22%,x,x,-13%,-1%,2%
O=C1c2ccccc2C(=O)N1CCCCN(C(=O)c1cc2ccccc2oc1=O)c1ccc(Cl)cc1,8%,-3.1%,-14%,19%,15%,3%,25%,-1%
COc1cc(-c2nc3ccccn3c2/N=C/c2cc(OC)c(O)cc2Cl)ccc1O,u,x,u,x,24%[46.1 µM],7%,-9%,x
O=C(COc1ccccc1Cl)NCc1ccccc1,-19%,x,-1%,x,-14%,71%[activator],-5%,-2%
Cc1nc(Cl)c2c(n1)NC1=C(O2)C(=O)CCC1,-2%[46.1 µM],-2.1%,-15%,17%,u,-9%,-9%,9%
